# High-throughput results: PubChem BioAssay, several laboratories
# T cruzi repl = inhibitors of intracellular T. cruzi growth, primary screen, luminescence, NIH3T3 host cells. inhibition, % (test concentration not listed). AID 1885, 2009. T. cruzi beta-gal in NIH3T3, 90 h. 300,000 compounds, 1.4% hits;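 active = mean inhibition across valid replicates above about 55%, limit read from the data; inconclusive = mean below that limit but half or more replicates reach it; inactive = mean below it, under half of replicates reach it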;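 note: signal also drops with host cell toxicity which is not excluded here; 0% = plate median of DMSO wells and 100% = zero luminescence signal; higher percent means less beta-gal luminescence so fewer parasites; stock transfer was 50 nL into about 50 µL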
# Ecoli rRNA inh = reduced GFP signal of wild-type E. coli, primary screen, bacterial rRNA inhibitor project, GFP/RFP fluorescence, OD600, single point; E. coli WT GFP vs humanized-ribosome RFP mutants, 24 h; stronger effect = lower value; DMSO median 0, no signal -100; GFP signal change (wild-type ribosome), % (test concentration not listed); 350,000 compounds, 1.6% hits; AID 720706, 2013;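 active = significant combined selectivity score with lowered wild-type GFP, culture density cut under 30%, mutant RFP and density less affected; inactive = any of these conditions unmet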; note: one replicate is shown; some compounds called inactive have numbers as strong as hits
# Bfl-1 A1 inh = caspase 3/7 activation in MEF A1-2A-BIM cells, primary screen, A1 inhibitor project, cell-based, luminescence, HTS. AID 2462, 2010. caspase activation, % (test concentration not listed). 330,000 compounds, 0.066% hits. Caspase-Glo 3/7 luminescence, 3 h; percent of clofoctol response, vehicle zero;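 active = over half of replicate activation scores above 10%, or exactly half above 10 with the replicate mean above 10; inconclusive = replicate mean below 10 yet half the replicates above 10; inactive = over half of replicates below 10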;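 note: wells of about 30 µL received 50 nL stock; many hits fall short of the cut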
# AF4-AF9 inh = inhibitors of AF4 peptide binding to AF9, primary screen, biochemical, AlphaScreen, biotin-AF4 peptide, FLAG-AF9, single point. inhibition, % at 10 µM. 350,000 compounds, 0.47% hits;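 active = every replicate reaching a set inhibition limit, whatever the replicate mean, cut at about 25% in these data; inconclusive = mean inhibition reaches that limit but some replicates miss it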;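 note: 0% = plate neutral control median and 100% = total signal loss; the record names both 10 and 1 µM as test concentration; the first replicate is given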
# Target sequence (P42568 whole entry, looked up): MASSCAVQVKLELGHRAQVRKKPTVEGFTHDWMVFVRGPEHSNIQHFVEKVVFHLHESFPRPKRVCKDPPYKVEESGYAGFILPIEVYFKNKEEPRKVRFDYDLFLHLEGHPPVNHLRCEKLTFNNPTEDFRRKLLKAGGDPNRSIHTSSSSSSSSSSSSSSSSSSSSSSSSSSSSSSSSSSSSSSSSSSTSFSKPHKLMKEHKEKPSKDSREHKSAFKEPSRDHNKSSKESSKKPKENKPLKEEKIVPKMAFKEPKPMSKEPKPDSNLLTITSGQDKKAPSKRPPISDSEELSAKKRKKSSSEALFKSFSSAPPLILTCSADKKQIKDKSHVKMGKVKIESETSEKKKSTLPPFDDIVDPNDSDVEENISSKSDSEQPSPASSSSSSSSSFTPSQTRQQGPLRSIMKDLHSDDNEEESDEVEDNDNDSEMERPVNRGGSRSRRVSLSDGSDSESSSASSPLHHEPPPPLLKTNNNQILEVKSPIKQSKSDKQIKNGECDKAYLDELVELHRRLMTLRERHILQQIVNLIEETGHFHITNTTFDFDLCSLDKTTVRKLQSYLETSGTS
# RanGTP-Impb inh = inhibitors of RanGTP-importin-beta interaction, primary screen, biochemical, FRET, CFP-Ran, YFP-importin-beta, homogeneous | 300,000 compounds, 1.1% hits | cell-free CFP-Ran/YFP-importin-beta FRET ratio | Ran GTPase (GTP-bound) - importin-beta complex | inhibition, % (test concentration not listed);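 active = most replicates above 15%; inconclusive = exactly half above 15%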;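 note: 0% = DMSO wells and 100% = Ran loaded with GDP instead of GTP; wells of about 40 µL received 100 nL stock; the first replicate is given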
# Calb FLC = C. albicans growth inhibition with fluconazole, primary screen, CaCi-2 strain, Alamar Blue fluorescence. C. albicans CaCi-2 (fluconazole-resistant clinical isolate) + fluconazole, 48 h. growth inhibition, % (concentration not given with the values). AID 1979, 2009. 300,000 compounds, 0.57% hits;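 active = most replicates above 75%; inconclusive = exactly half above 75%; inactive = most below 75%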;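 note: all wells also contain fluconazole at 8 µg/ml as a sub-toxic cotreatment; 0% = median of DMSO wells and 100% = median of geldanamycin control wells; wells of about 8 µL received 7.5 nL stock; the first replicate is given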
# Beta cell apopt = inhibitors of cytokine-induced beta cell apoptosis, primary screen, luminescence. INS-1E cytokine-induced death, ATP luminescence, 48 h; percent of positive-control rescue, neutral wells zero. protection from apoptosis, % (no concentration beside the values). 300,000 compounds, 0.8% hits;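 active = all replicates at 75% or more, or half of them and the mean; inconclusive = half reach 75% but not the mean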;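 note: 0% = cytokine-treated negative control wells and 100% = positive control rescue; higher means more ATP so stronger rescue from cytokine killing; wells of about 40 µL received 100 nL stock; the first replicate is given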
# Vif TR-FRET = inhibitors of Vif binding to APOBEC3G peptide, primary screen, biochemical, TR-FRET, GST-Vif 1-94, biotin-A3G peptide, dose response retest (AID 1117319). Virion infectivity factor (Human immunodeficiency virus type 1 group M subtype B (isolate …. TR-FRET GST-Vif / biotin-A3G peptide binding; higher % means a stronger effect; test concentration not given here; strong numbers were not always called active. inhibition, %; hits with a dose series show IC50 in µM. 260,000 compounds, 0.57% hits;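 active = above the screen mean plus three standard deviations and confirmed in dose response; inconclusive = results disagree or hit not tested in dose response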;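 note: Vif residues 1-94 fused to GST binding biotinylated APOBEC3G peptide 110-148; 0% = full assay without inhibitor and 100% = GST in place of GST-Vif; retest series ran down from 100 µM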
# Ecoli rRNA inh OD600 = also measured in Ecoli rRNA inh; calls as there; OD600 change, %; measured here: OD600 growth;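 optical density of the mix in the first replicate; 0 = DMSO median and -100 = no signal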
# Ecoli rRNA inh RFP = also measured in Ecoli rRNA inh; calls as there; RFP signal change, %; measured here: RFP humanized mutant strains;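 first replicate; 0 = DMSO median and -100 = no signal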
# * marks the source's active call; other numbers are inactive results; u = inconclusive; x = not tested or not shown; & = joins results of further samples. Not all compounds are listed. The share of hits here may be higher or lower than overall.
SMILES,T cruzi repl,Ecoli rRNA inh,Ecoli rRNA inh OD600,Ecoli rRNA inh RFP,Bfl-1 A1 inh,AF4-AF9 inh,RanGTP-Impb inh,Calb FLC,Beta cell apopt,Vif TR-FRET
O=C(NCCc1ccc(Cl)cc1)C1CCC(CNc2nc(=S)[nH]c3ccccc23)CC1 (stereo not given),11,-1,0,-4.6,1.3,-0.9,u,-2,60,-1%
COc1cc(/C=C/C(=O)OCC(=O)N2CCOCC2)ccc1OCC#N,-8,7,1,-1.3,0.1,1.9,-3.2,16,-9,4%
O=C(CSc1ccc(-c2cccs2)nn1)Nc1ccccc1,0,-1,-5,-0.6,-0.2,0.1,-3.0,17,-6,-4%
CCn1c2ccccc2c2cc(NC(=O)c3ccc([N+](=O)[O-])cc3)ccc21,-4,x,x,x,-0.3,x,-2.8,6,9,6%
N#Cc1c(-c2ccco2)ccn(Cc2cccc(F)c2)c1=O,5,-17*,5.5*,5.4*,-0.2,-1.9,u,16,-10,1%
Cc1nnc(SCc2cc(=O)[nH]c(N3CCCCC3)n2)s1,-9,x,x,x,0.1,x,-0.4,-7,1,9%
COCCSc1ccccc1C(=O)N1CCCC(C)C1 (stereo not given),-4,14,5,3.6,0.3,-0.2,-0.8,-1,-3,-1%
O=Cc1ccc(N2CCCCC2)cc1,-5,21,25,3.1,-0.2,-1.2,u,-30,2,-6%
CNc1cc(C)nc(N2CCOCC2)n1,-14,8,7,-0.2,0.0,2.5,2.6,0,0,4%
N#Cc1ccccc1CSc1nc2ncc(Br)cc2[nH]1,5,3,8,-0.3,0.1,-1.4,9.0,5,-3,-28%
Cc1cccc(N/C(N)=N/c2nc3c(c(=O)[nH]2)CCCC3)c1,-5,x,x,x,-1.0,x,2.6,-25,11,4%
CCC(C)c1ccccc1NC(=O)C(C)N(C)Cc1cccc(OC)c1 (stereo not given),24,-39,-70,0.2,0.9,-1.4,0.1,5,-4,1%
CCCCCCCN1CCN=C1N(C)C,x,2,-1,1.3,0.3,-0.7,x,x,-3,x
COc1ccc(C(c2nnnn2CCc2ccccc2)N2CCN(C3CCCC3)CC2)cc1 (stereo not given),-25,x,x,x,-0.1,x,-1.2,-5,x,29%
COc1ccc(Cl)cc1Nc1nc(N)c2ccccc2n1,43,-33,-43,-7.7,-0.3,4.1,-3.2,20,5,9%
COc1ccc(C2C(C#N)=C(N)OC3=C2C(=O)CC(C)(C)C3)c(OC)c1OC (stereo not given),6,x,x,x,-0.1,x,-4.4,-3,5,-11%
CCOC(=O)C1(CCOc2ccccc2)CCN(Cc2ccc(NC(C)=O)cc2)CC1,3,9,-4,2.0,0.7,2.1,0.1,-35,0,-2%
Cc1ccc([C@@H]2CC=C(C(=O)O)CN2S(=O)(=O)c2ccc(C)cc2)cc1,x,-19,-8,-8.7,0.4,-1.0,x,x,5,x
CCc1ccc(NC(=O)C(=O)NCC2CCCO2)cc1 (stereo not given),-3,0,0,-7.9,-0.3,-1.8,0.2,-22,-2,-9%
CC1=NNC(=O)C1CC(=O)N/N=C(/C)c1cccc([N+](=O)[O-])c1 (stereo not given),0,-1,2,6.4,0.1,-1.9,3.3,3,0,-1%
O=C(CN1C(=O)COc2ccc(S(=O)(=O)N3CCCCC3)cc21)NCc1ccc(Cl)cc1,-12,-20,-40,-4.9,0.1,3.4,0.7,-2,-1,x
FC(F)(F)c1ccc(N2CCOCC2)c(Nc2nc3ccccc3n3cnnc23)c1,13,12,-2,-0.1,-0.4,6.6,6.2,28,-2,2%&24%
O=C(COc1ccccc1)NNC(=S)NC(=O)c1ccc(Cl)cc1Cl,-7,x,x,x,-0.6,x,2.8,105*,-2,5%
CC1(C)SC2c3ccccc3C(=O)N2[C@@H]1C(=O)NC1CC1 (stereo not given in full),4,13,12,-1.6,-0.4,-2.3,3.5,-2,x,1%
Cc1cc(N2CCCC2)ccc1NC(=O)COc1ccc(Cl)cc1,x,2,8,4.9,1.0,3.1,x,x,-16,x
COc1ccc(C(C)=O)c2c1OCCO2,-1,x,x,x,-0.4,-2.8,1.7,-10,5,13%
CC1(C)CC(=O)C=C(NCCc2ccc(S(N)(=O)=O)cc2)C1,-24,x,x,x,-0.1,x,4.3,-1,1,-4%
O=c1[nH][nH]c(C(F)(F)F)c1C=NCc1cccs1,-2,16,14,-0.6,1.4,-0.9,u,1,-4,15%
Cc1cc(C)cc(NC(=O)N2CCC(NC(=O)c3ccco3)CC2)c1,-11,-1,1,-2.6,0.4,2.5,4.8,0,-3,x
COc1cccc(C(=O)Nc2ccc(C)cc2)c1,7,x,x,x,-8.2,x,8.0,-6,-3,2%
O=C(CSc1nc2ccccc2o1)N1CCN(c2ccccc2)CC1,-2,x,x,x,-0.6,x,4.4,-4,1,3%
O=C(COc1ccc(S(=O)(=O)NCc2ccccc2)cc1)N1CCOCC1,-9,8,0,2.2,-0.3,-1.2,4.8,-12,-4,3%
CCc1cc2c(=O)c(Oc3ccccc3)c(C)oc2cc1O,-13,x,x,x,0.4,x,3.0,-22,2,-1%
CCOC(=O)CSc1nc2cc(S(=O)(=O)N3CCOCC3)ccc2n1CC,-8,-5,-1,-1.8,0.1,2.4,4.0,3,-3,10%
COc1cccc(-c2nnc(SCC(=O)Nc3ccc(OC)c(OC)c3)n2N)c1,-1,x,x,x,0.1,x,4.8,10,13,13%
CCCC[n+]1c(C)sc2ccc(C)cc21,20,6,5,6.6,0.6,-17,u,-19,-4,x
O=C1CSC(=S)N1/N=C/c1cccc(C(F)(F)F)c1,-1,-29,-38,-4.5,0.3,-1.0,-2.9,1,4,x
O=C(O)CN1C(=O)/C(=C\c2cccc(OC(=O)c3ccco3)c2)SC1=S,-13,7,8,-1.2,-1.0,-5.1,1.6,3,-2,x
CC(/C=N/NC(=O)Cc1cccn1C)=C\c1ccccc1,-7,x,x,x,-0.3,x,2.4,-8,-4,x
CCOc1ccccc1NC(=O)CNC(=O)CNC(=O)Cc1ccccc1,1,-2,5,-2.8,-0.3,-3.3,-16,-4,-2,-7%
O=C(O)Cn1c(=O)c2c3c(sc2n(Cc2ccc(Cl)cc2Cl)c1=O)CCCC3,-8,-7,-5,9.7,0.5,-2.7,-2.4,30,-1,x
O=C([O-])c1ccccc1-[n+]1c(-c2ccccc2)cc(-c2ccccc2)cc1-c1ccccc1,49,-49,-65,-21,1.2,14,2.0,-8,0,x
NC(=O)C1CCN(C(=O)/C=C/c2ccco2)CC1,-10,x,x,x,-0.1,x,-6.7,8,0,17%
COc1ccc(C(=O)OCc2ccc(C)cc2)cc1S(=O)(=O)N1CCOCC1,x,-9,-19,2.7,0.3,-4.0,x,x,-3,-4%
COc1ccc(N=Cc2nc(-c3ccco3)oc2O)cc1,5,x,x,x,-5.3,x,20*,-5,-2,1%
Cc1c(Cl)cccc1NC(=S)NCCc1ccc(C(F)(F)F)cc1,23,-46,-78,-11,0.1,2.0,-5.7,-8,-3,-11%
CN1CCN(c2nc(-c3ccco3)cc(C(F)(F)F)n2)CC1,27,x,x,x,-0.3,-43,-2.2,-26,3,7%
CN1CCC(CO)(Cc2ccccc2)CC1,-2,-15,-12,-1.4,-0.7,-3.7,u,u,-7,25%

# Reprinted from the part before: 2 compounds; new compounds follow.
SMILES,T cruzi repl,Ecoli rRNA inh,Ecoli rRNA inh OD600,Ecoli rRNA inh RFP,Bfl-1 A1 inh,AF4-AF9 inh,RanGTP-Impb inh,Calb FLC,Beta cell apopt,Vif TR-FRET
CN1CCN(c2nc(-c3ccco3)cc(C(F)(F)F)n2)CC1,27,x,x,x,-0.3,-43,-2.2,-26,3,7%
CN1CCC(CO)(Cc2ccccc2)CC1,-2,-15,-12,-1.4,-0.7,-3.7,u,u,-7,25%
CC(C)Oc1ccc(Cc2cnc(N)nc2N)cc1,23,x,x,x,0.7,x,-1.8,-4,x,0%
CCOc1ccc(C2CC(c3ccc(OC)c(OC)c3)n3nc(N)nc3N2)cc1 (stereo not given),19,9,10,-3.0,-0.2,0.1,-3.0,-16,0,3%
O=C(CCCN1C(=O)CSc2ncccc21)N1CCN(Cc2ccccc2)CC1,6,1,11,0.6,0.3,-44,0.1,3,2,-1%
CCOC(=O)c1cccc(C2=CC(=O)C[C@H](c3ccc(OC)c(OC)c3)C2)c1,x,-23,-22,6.6,0.1,5.5,x,x,3,x
CC(=O)Nc1ccc(NC(=O)CSc2nnc(NC(=O)Cc3ccc(F)cc3)s2)cc1,22,10,6,2.3,0.8,-22,-4.6,0,-3,x
CC(C)c1nc(=S)c2ccccc2[nH]1,-16,x,x,x,3.4,x,2.7,-13,-9,-5%
CC(=O)N1CC2(C)CN(C(C)=O)CC(C)(C1)C2=O,-12,x,x,x,-0.2,x,4.7,11,-9,-2%
CCCCNC(=O)NNC(=O)c1ccc(F)cc1,-2,x,x,x,0.5,x,-0.3,-3,-5,-3%
Cc1c(-c2ccc(F)cc2)nc(N)c(C#N)c1-c1ccco1,9,x,x,x,0.1,x,-1.9,37,-14,11%
Cc1ccc(S(=O)(=O)NC(C(=O)OCC(=O)NC2CCS(=O)(=O)C2)C(C)C)cc1 (stereo not given),6,x,x,x,0.1,x,1.6,5,-1,2%&-6%
O=C(OC(c1ccccc1)c1nccc2ccccc12)c1cc([N+](=O)[O-])cc([N+](=O)[O-])c1 (stereo not given),58*,x,x,x,-0.9,x,2.8,22,19,0%

# Four entries out of the list, arranged by count of non-hydrogen atoms, low to high.
SMILES,T cruzi repl,Ecoli rRNA inh,Ecoli rRNA inh OD600,Ecoli rRNA inh RFP,Bfl-1 A1 inh,AF4-AF9 inh,RanGTP-Impb inh,Calb FLC,Beta cell apopt,Vif TR-FRET
Cc1c(-c2ccc(F)cc2)nc(N)c(C#N)c1-c1ccco1,9,x,x,x,0.1,x,-1.9,37,-14,11%
O=C(CCCN1C(=O)CSc2ncccc21)N1CCN(Cc2ccccc2)CC1,6,1,11,0.6,0.3,-44,0.1,3,2,-1%
CC(=O)Nc1ccc(NC(=O)CSc2nnc(NC(=O)Cc3ccc(F)cc3)s2)cc1,22,10,6,2.3,0.8,-22,-4.6,0,-3,x
O=C(OC(c1ccccc1)c1nccc2ccccc12)c1cc([N+](=O)[O-])cc([N+](=O)[O-])c1 (stereo not given),58*,x,x,x,-0.9,x,2.8,22,19,0%
